# GIV-Gai inh: blocks GIV peptide binding to rat Galpha-i3. Galpha-i3/FITC-GIV peptide fluorescence polarization, 90 min; hits give low values; scaled: aluminum fluoride 0%, vehicle 100%. P08753. percent of control (FP), % (test concentration not listed). actives 0.42% (n = 210,000);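 active = replicate mean at 85% of control or lower, very high polarization wells dropped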;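 note: wells of about 15 µL received 100 nL stock; the first replicate is given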
# Target sequence (P08753 whole entry, looked up): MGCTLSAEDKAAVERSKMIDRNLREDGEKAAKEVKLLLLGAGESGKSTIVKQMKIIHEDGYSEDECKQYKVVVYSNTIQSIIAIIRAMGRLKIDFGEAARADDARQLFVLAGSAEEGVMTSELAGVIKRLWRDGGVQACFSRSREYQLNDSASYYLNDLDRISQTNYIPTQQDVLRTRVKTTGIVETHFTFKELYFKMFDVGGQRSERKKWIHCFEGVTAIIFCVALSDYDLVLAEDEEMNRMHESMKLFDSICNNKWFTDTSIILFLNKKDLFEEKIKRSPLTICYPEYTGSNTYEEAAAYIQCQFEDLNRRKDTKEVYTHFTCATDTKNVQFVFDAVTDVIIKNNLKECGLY
# HCMV NEC inh: inhibitors of HCMV UL50-UL53 nuclear egress complex interaction; HTRF UL50-UL53 interaction, normalized percent inhibition; inhibition, % (concentration not given with the values); actives 0.15% (n = 190,000); AID 1918969;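 active = both replicates at 50% or more, plus weaker picks with an unusually low signal ratio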;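 note: stock transfer was 100 nL into about 20 µL; 0% = negative control wells and 100% = wells with untagged competitor protein; inactives centre near -12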
# Sa growth inh: inhibitors of Staphylococcus aureus growth at 42 °C; S. aureus RN4220 growth, OD600, 20 h; hits give low values; actives 0.53% (n = 170,000); relative growth, % (concentration not given with the values);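 active = growth at 42 °C up to 50% and 20 or more points under that at 30 °C, or under 10% at both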;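 note: 300 nL library stock went into each well; scaled to the means of positive and negative controls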
# Sa growth inh second temp: recorded beside Sa growth inh, whose call it bears; relative growth, %; measured here: growth at 30 °C;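 optical density after 20 h as mean of two plates; 100% = untreated growth and lower means inhibition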
# Starred values were filed as active, the others as inactive; x = not tested or not shown; & = joins results of further samples.
SMILES,GIV-Gai inh,HCMV NEC inh,Sa growth inh,Sa growth inh second temp
Cc1ccccc1NC(=O)COC(=O)CCc1ccccc1,x,8,92,88
Fc1ccccc1N1CCN(Cc2nc(-c3ccc(Cl)cc3Cl)no2)CC1,104,-10,135,91
CCCN1C(=O)C(CC(C)=O)(OC(C)=O)c2ccccc21 (stereo unspecified),105,-4,x,x
CC(=O)N1CCCc2cc(S(=O)(=O)N(C)CC(=O)Nc3cccc(C)c3C)ccc21,100,x,98,90
CCn1ncc(C2=NOC(C(=O)Nc3c(C)nn(Cc4ccc(F)cc4)c3C)C2)c1C (stereo unspecified),100,3,109,93
N#Cc1cn(C2CCN(Cc3ccccc3)CC2)c(=O)[nH]c1=O,107,-29,95,86
CCNS(=O)(=O)c1ccc(S(=O)(=O)N(Cc2ccccn2)C2CCCCC2)cc1,101,-18,98,76
Nc1cc(=O)[nH]c(=O)n1Cc1ccccc1,97,x,114,91
Cc1cc2nc(CSc3ccccc3NC(=O)COc3ccccc3Cl)cc(=O)n2o1,102,0,x,x
O=c1oc(-c2ccccc2)nc2c1oc1ccc(Cl)cc12,x,9,92,96
Cc1ccccc1-c1nnc(SCC(=O)NC(=O)Nc2ccccc2F)n1C,x,-16,94,86
COC(=O)c1c(NC(=O)CCN2C(=O)c3cccc([N+](=O)[O-])c3C2=O)sc2c1CCC(C)C2 (stereo unspecified),101,-13,x,x
OCCNc1cc(-n2nc(-c3ccccc3)cc2-c2ccccc2)ncn1,98,-8,86,67
CCC(=O)N1CCCC1c1nc2ccccc2n1CCCCOc1cccc(C)c1 (stereo unspecified),103,-23,x,x
Cc1cc(C)cc(NC(=O)Cn2ncc3c2-c2cc(C)ccc2OC3)c1,98,-18,x,x
Cc1ccc(NC(=O)Cn2c(=O)n(Cc3ccc4c(c3)OCO4)c(=O)c3ccc(C(=O)NC4CCCCC4)cc32)cc1,105,-8,97,92
O=C1C=CC(=O)N1c1ccc(-n2ccc(C(F)(F)F)n2)cc1,96,-8,94,77
COc1ccc(N/C(C)=C/C(=O)c2ccccc2)cc1,108,-11,108,92
N#Cc1ccc(NC(=O)COC(=O)c2ccc(F)cc2)cc1,x,-28,101,82
CCOC(=O)c1ccc(NC(=O)CSc2c3c(nc4cc(Cl)ccc24)CCCC3)cc1,100,-31,104,80
CNC(=O)Sc1ccccc1Cl,96,-32,-0.6*,-0.2*
Cc1ccc(C(C)C)c(OCC(=O)Nn2c(=O)[nH]c3ccccc3c2=O)c1,101,x,108,40
CC(C)CNC(=O)c1ccccc1S(=O)(=O)N1CCCCC1,x,-15,49*,79*
O=C(CCc1ccc(S(=O)(=O)NCc2ccccc2)cc1)N1CCCC1,105,-4,105,101
Cc1sc(-c2noc(C3CC3)n2)cc1NC(=O)C1CCC1,111,-12,x,x
Cc1ccc(C2c3cccn3CCN2S(=O)(=O)c2ccc([N+](=O)[O-])cc2)cc1 (stereo unspecified),99,x,91,91
O=C(CS(=O)(=O)c1cccc2nsnc12)N1CC(=O)N(CCc2ccccc2)C(=O)C1,96,x,95,85
CC(=O)c1ccc(C(=O)N(Cc2cccnc2)c2nc3c(C)c(C)ccc3s2)cc1,102,x,112,82
CCCC1=Nc2cc(C(=O)NCc3ccc(OC)cc3)ccc2Sc2ccc(C)cc21,106,2,104,96
CN(c1ccccc1C(=O)N1CCN(c2ccccc2F)CC1)S(=O)(=O)c1ccccc1,103,0,94,96

# Whole records as entered above. Order of values: GIV-Gai inh, HCMV NEC inh, Sa growth inh, Sa growth inh second temp
# Results for Cc1ccccc1-c1nnc(SCC(=O)NC(=O)Nc2ccccc2F)n1C → x, -16, 94, 86
# Results for COC(=O)c1c(NC(=O)CCN2C(=O)c3cccc([N+](=O)[O-])c3C2=O)sc2c1CCC(C)C2 (stereo unspecified) → 101, -13, x, x

# Going on with the list:
SMILES,GIV-Gai inh,HCMV NEC inh,Sa growth inh,Sa growth inh second temp
CN1CCSc2ccc(C(=O)NCCCN3CCCCCC3)cc21,96,x,112,87
O=C(CCN1CCOCC1)N1N=C(c2ccccc2)CC1c1ccco1 (stereo unspecified),103,-16,113,80
Cn1ccc(NC(=O)NC(=O)c2c(F)cccc2F)n1,100,-23,98,91
CCOc1ccc(CC(=O)NCc2ccc3c(c2)CCN3C(=O)c2ccc(F)cc2)cc1OCC,109,x,110,84
CN(C)S(=O)(=O)c1ccc2c(c1)nnn2CCCC(=O)N1CCN(c2ccc(F)cc2)CC1,111,-12,x,x
O=C(Nc1ccccc1Br)N1CCN(c2ccc(=O)n(-c3ccc(F)cc3)n2)CC1,107,-51,x,x
COC(=O)C1CCN(c2nc3ccccc3[nH]2)CC1,99,-21,x,x
CCN(CC)CCn1c(=S)[nH]c2cc(C(=O)N3CCCC3)ccc2c1=O,99,-25,92,88
CC(C)CCNS(=O)(=O)c1ccc2c(c1)CCN2C(=O)CCC(=O)O,97,-38,x,x
Cc1ccc(C(=O)OCC(=O)NC2CC2)s1,x,12,101,100
O=C(CSc1nnc2n(CC3CCCO3)c(=O)c3sccc3n12)Nc1ccc2c(c1)CCC2 (stereo unspecified),105,-6,x,x
CN1C(=O)CC(P(=O)(c2ccccc2)c2ccccc2)N(C)C1=O (stereo unspecified),103,-8,117,105
O=C(Cc1ccccc1)N/N=C/c1ccc(N2CCOCC2)cc1,x,-68,113,89
COc1ccc2nc(C)cc(N3CCC(C(N)=O)CC3)c2c1,x,-41,92,99
N#Cc1ccccc1OCC(=O)NCCc1ccccc1,94,3,89,83
CCOC(=O)CC1=CC(SC(C)C(=O)Nc2ccc3c(c2)OCCO3)=Nc2ccccc2N1 (stereo unspecified),105,-1,x,x
CCOC(=O)c1sc(NC(=O)c2c(C)nn(Cc3ccccc3)c2C)cc1C,x,-18,98,92
O=C(CCC1CCCC1)Nc1ccc2nc3n(c(=O)c2c1)CCCCC3,101,x,110,78
CCCCN(C)Cc1c(O)ccc2c(-c3ccccc3)cc(=O)oc12,104,-99,87,79
Cc1ccc(N(Cc2nc3nc(C)cc(=O)n3[nH]2)S(=O)(=O)c2ccc(Cl)cc2)cc1,111,-8,x,x
COc1ccc(C2=NCC(C)(C)CO2)cc1OC,x,6,92,95
CC(C)CN1CCNCC1,x,-12,85,90
COc1ccc(/C(C#N)=C\c2ccc(-c3ccccc3Br)o2)cc1OC,118,-3,125,104
COC(=O)C#CCN1C(=O)c2ccccc2C1=O,106,-56,40,21
O=C(NCC1CCCO1)c1c(O)nc2sccn2c1=O (stereo unspecified),103,-30,83,83
CC(C(=O)Nc1ccccc1)n1nnc2sc3c(c2c1=O)CCCC3 (stereo unspecified),115&115,-13&0,100,91
Cn1nnnc1SCCNCc1ccccc1Cl,102,-18,100,93
COc1cccc(C(=O)N2CC(C)OC(C)C2)c1 (stereo unspecified),97,0,94,83
Cc1ccc(OCCc2nc3ccccc3[nH]2)cc1,105,-2,111,91
O=C1CC(c2cc(Br)ccc2F)c2scc(S(=O)(=O)c3ccccc3)c2N1 (stereo unspecified),101,-2,x,x
Cc1ccc2cc3c(nc2c1)-c1ccccc1C3=NC1CCCCC1,x,-24,104,97
COc1ccc(NC(=O)C2=C(C)Nc3nc(SCc4ccccc4C)nn3C2c2ccc(Br)cc2)cc1 (stereo unspecified),103,-9,87,86
CC(=O)Nc1ccc(NC(=O)C2CCN(S(=O)(=O)c3ccc4c(c3)CCCC(=O)N4)CC2)cc1,107,x,95,84
Cc1ccc(-n2nc(C(=O)Nc3cccnc3)c3c4ccccc4n(C)c3c2=O)cc1,103,-3,81,94
CCC(=O)Nc1nc(-c2ccc(F)cc2)ns1,112,9,x,x
COc1ccc(N2C(=O)/C(=C/c3cc(Cl)c(OCC(=O)O)c(Cl)c3)C(=O)NC2=S)cc1,95,-21,x,x
COc1ccc(N2CCN(C(=O)COc3ccccc3C#N)CC2)cc1,102,-42,111,95
Cc1ccc(CNC(=O)c2ccc3c(c2)N(Cc2cccc(Cl)c2)C(=O)CS3)cc1,101,-9,106,87
CCCN(C(=O)/C=C/c1ccc(S(=O)(=O)N(CC)CC)cc1)C1CCS(=O)(=O)C1 (stereo unspecified),x,-36,91,102
O=C(NCc1ccco1)c1cccc(NC(=O)c2ccc(Br)cc2)c1,108,-1,118,99
Cc1nc(-n2nc(C)c(CC(=O)N3CCCC3)c2C)sc1C,103,-24,x,x
O=c1[nH]c(CSc2nnc3n2CCCCC3)nc2scc(-c3ccccc3Cl)c12,x,-3,100,99
O=C(Nc1ccc(F)cc1F)c1cccc2c1C(=O)N(C1CCCCC1)C2,107,-28,104,91
COc1ccc(/C=N/N=C(N)N)cc1OC,94,-40,103,93
CN(C(=O)COn1nnc2ccc(S(=O)(=O)N3CCOCC3)cc21)c1ccccc1,x,-8,109,87

# 4 entries from above, as labelled records:
Cc1ccc(-n2nc(C(=O)Nc3cccnc3)c3c4ccccc4n(C)c3c2=O)cc1
  GIV-Gai inh: 103
  HCMV NEC inh: -3
  Sa growth inh: 81
  Sa growth inh second temp: 94

CCC(=O)Nc1nc(-c2ccc(F)cc2)ns1
  GIV-Gai inh: 112
  HCMV NEC inh: 9
  Sa growth inh: x
  Sa growth inh second temp: x

COc1ccc(N2C(=O)/C(=C/c3cc(Cl)c(OCC(=O)O)c(Cl)c3)C(=O)NC2=S)cc1
  GIV-Gai inh: 95
  HCMV NEC inh: -21
  Sa growth inh: x
  Sa growth inh second temp: x

COc1ccc(N2CCN(C(=O)COc3ccccc3C#N)CC2)cc1
  GIV-Gai inh: 102
  HCMV NEC inh: -42
  Sa growth inh: 111
  Sa growth inh second temp: 95

# Shown bar-delimited: 5 of the compounds above
Compound | GIV-Gai inh | HCMV NEC inh | Sa growth inh | Sa growth inh second temp
CC(=O)Nc1ccc(NC(=O)C2CCN(S(=O)(=O)c3ccc4c(c3)CCCC(=O)N4)CC2)cc1 | 107 | x | 95 | 84
Cc1ccc(-n2nc(C(=O)Nc3cccnc3)c3c4ccccc4n(C)c3c2=O)cc1 | 103 | -3 | 81 | 94
CCC(=O)Nc1nc(-c2ccc(F)cc2)ns1 | 112 | 9 | x | x
COc1ccc(N2C(=O)/C(=C/c3cc(Cl)c(OCC(=O)O)c(Cl)c3)C(=O)NC2=S)cc1 | 95 | -21 | x | x
COc1ccc(N2CCN(C(=O)COc3ccccc3C#N)CC2)cc1 | 102 | -42 | 111 | 95

# (listing goes on)
SMILES,GIV-Gai inh,HCMV NEC inh,Sa growth inh,Sa growth inh second temp
CCCOc1ccc(/C(=N\O)C(C)(C)NO)cc1,102,x,106,94
O=c1c2ccccc2n2c(SCc3ccccc3)nnc2n1Cc1ccccc1,103,-34,x,x
CCOC(=O)c1cnn(C(=O)OCC)c1N,94,11,78,87
O=C(CCCn1c2ccccc2c(=O)c2ccccc21)Nc1ccc(F)cc1Cl,108,-55,100,81
CC1CCCC(NC(=O)COc2ncnc3ccccc23)C1C (stereo unspecified),x,-25,116,86
CCOC(=O)C1CCCN1S(=O)(=O)c1cccc2nsnc12 (stereo unspecified),x,-84,87,91
CCc1ccc(NC(=O)c2ccccc2Br)cc1,x,4,102,85
NS(=O)(=O)c1ccc(NC(=S)NC(=O)c2cccnc2)cc1,102,-8,114,78
O/N=C1/CCCc2nn(-c3ccccc3)nc21,x,56*,118,65
CS(=O)(=O)N1CCCc2cc(Br)ccc21,102,-20,65,90
FC(F)(F)COc1ccc(OCC(F)(F)F)c(-c2ncn[nH]2)c1,104,-14,x,x
O=C(Nn1nnnc1Nc1ccccc1)C12CC3CC(CC(C3)C1)C2,x,-1,121,73
COc1cccc(CNC(C)c2ccccc2)c1OCc1ccccc1F (stereo unspecified),101,x,68,66
CCOc1ccc(CNC(=O)CC2Sc3ccc(S(=O)(=O)N(C)C)cc3N(C)C2=O)cc1 (stereo unspecified),110,-12,x,x
CN1CCc2c(sc(-n3cccc3)c2CNC(=O)Nc2cccc(F)c2)C1,110,-27,x,x
Cc1cc(C)c2nc(NC3=NC(c4ccccc4)CC(=O)N3)nc(C)c2c1 (stereo unspecified),108,x,105,53
O=C1CCc2cc(C(=O)CSc3ccccc3)ccc2N1,103,-15,97,83
COc1cccc(NC(=O)c2cc(-c3cccs3)nc3ccccc23)c1,103,-8,x,x
CCOc1ccc(CNC(=O)C2CCN(S(=O)(=O)N3CCCCC3)CC2)cc1,100,x,105,88
Cc1cc(OC(=O)c2ccno2)cc(C)c1Cl,99,3,119,114
CC(C)(C)c1ccc(Oc2ccc(NC(=O)Nc3cccs3)cn2)cc1,106,4,54,64
Cc1cc(C)nc(Nc2nc3ccccc3s2)n1,99,-26,97,100
O=C(CCc1ccccc1)NN1C(=O)c2ccccc2C1=O,97,-35,121,99
COc1cc2c(cc1OC)/C(=C\C#N)NCC2,119,-12,101,81
